CtBP-E1A inh – inhibitors of CtBP/E1A interaction; AlphaScreen GST-E1A/His-CtBP binding, 1536-well; hits give low values; control for the full effect not named in the record; activity change, % (concentration not given with the values); 0.49% of 340,000 active; AID 651724; in the data active means activity change below about -65%; inconclusive means about -30% to -65%; inactive means above about -30%; note: % is set by controls: 0 for no effect and ±100 for the full control effect
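Protein mix (5X: 125 nM each GST-E1A, His-CtBP) was incubated with pinned compound 2 h at 37 deg C in dark, in 50 mM Tris pH 8.0 buffer with 300 mM NaCl. Glutathione donor and nickel acceptor beads followed; AlphaScreen signal read after 1 h.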
Six1-Eya2 blk – Six1/Eya2 interaction inhibition. Q15475+O00167. AlphaScreen GST-Six1/His-Eya2 binding, biochemical; hits give low values; control for the full effect not named in the record. activity change, % (no concentration beside the values). 0.56% of 360,000 active; in the data active = activity change below about -65%; inconclusive = about -30% to -65%; inactive = above about -30%; note: % is set by controls: 0 for no effect and ±100 for the full control effect; compound concentration not given in the record
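AlphaScreen luminescence read after one hour at 37 °C in darkness. Pin-transferred compounds met GST-Six1 and His-Eya2 protein (5X stock 250 nM/500 nM) plus glutathione donor and Ni-chelate acceptor beads (5X, 50 ug/mL).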
D2 PAM – positive allosteric modulators of human D2 dopamine receptor; potentiation, % (no concentration beside the values); 0.23% of 360,000 active; AID 624464; P14416; DiscoveRx D2 beta-arrestin cells, luminescence, 90 min; 100% = 57 uM dopamine signal; active = potentiation of 50% or more; inconclusive = 30% to 50%; inactive = 30% or less;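 note: compound concentration not given in the record; tested on top of an EC20 dose of dopamine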
Target sequence (P14416 whole entry, looked up): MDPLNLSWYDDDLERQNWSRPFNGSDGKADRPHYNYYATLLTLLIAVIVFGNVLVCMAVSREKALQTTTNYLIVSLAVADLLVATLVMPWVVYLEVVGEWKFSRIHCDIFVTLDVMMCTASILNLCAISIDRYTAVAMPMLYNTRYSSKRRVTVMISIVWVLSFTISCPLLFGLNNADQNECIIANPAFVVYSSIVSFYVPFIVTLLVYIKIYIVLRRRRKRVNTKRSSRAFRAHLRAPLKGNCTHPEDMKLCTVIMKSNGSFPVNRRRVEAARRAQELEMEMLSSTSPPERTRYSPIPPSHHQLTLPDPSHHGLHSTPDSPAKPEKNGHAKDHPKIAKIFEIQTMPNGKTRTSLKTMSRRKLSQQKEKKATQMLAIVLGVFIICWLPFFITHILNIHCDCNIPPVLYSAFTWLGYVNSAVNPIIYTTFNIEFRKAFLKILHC
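PathHunter beta-arrestin assay in DiscoveRx D2 cells. Compounds were added with an EC20 of dopamine (50 nM final) for 90 min at 37 deg C. Luminescence was read 1 h after detection reagent, with 57 uM dopamine as the EC100 control.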
D2 agonist – human D2 receptor agonism in beta-arrestin assay; DiscoveRx PathHunter D2 beta-arrestin, luminescence, 90 min; 100% = 57 uM dopamine signal; activation, % (concentration not given with the values); 0.084% of 360,000 active; AID 624465; in the data active = activation above about 40%; inconclusive = about 15% to 40%; inactive = below about 15%; note: compound concentration not given in the record; the text of the record calls up to 30% inactive
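DiscoveRx PathHunter D2 beta-arrestin cells (2,100/well) attached overnight, then compound-stimulated 90 min at 37 C in HBSS/10 mM HEPES/0.1% Tween-20 buffer; beta-galactosidase complementation read by luminescence after 1 h at ambient temperature. Dopamine 57 uM final (EC100) as control.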
PINK1 modulator – PINK1 expression modulation; Potency, µM (top dose mostly 76.6 µM), without a hit: at the top dose activation (PINK1 increase), usual class: activators; PINK1 immunofluorescence, high-content cytometry, 24 h; 0.2% of 410,000 active; AID 624263; active = well fitted activation curve with a large enough effect; inconclusive = small, poorly fitted or top-dose-only effect; inactive = flat fitted curve, though single readings scatter; cell line not stated here;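 note: potency is the fitted concentration of half-maximal effect; % of control where 0% means no effect; nearly all actives have a fitted effect of over 65% in size; a mitochondrial uncoupler was the plate control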
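PINK1 protein level read as immunofluorescence by microplate cytometer in a fixed, stained stable cell line after 24 h exposure to five compound concentrations, with CCCP as control.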
Sfp inh – inhibitors of Bacillus subtilis Sfp phosphopantetheinyl transferase; Q9F4F7; Biochemical Sfp PPTase activity, qHTS; Potency, µM, for inactives: max response, negative = inhibition, most hits filed as inhibitors; 3.5% of 310,000 active; active = well fitted inhibition curve with a large enough effect; inconclusive = small, poorly fitted or top-dose-only effect, or another doubt; inactive = no such curve, though single readings can be large or run the other way;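 note: the enzyme is Sfp with the accession as filed and its product quenches rhodamine fluorescence; potency is the fitted concentration of half-maximal effect; 0% = enzyme reaction without inhibitor and -100% = no enzyme wells; top concentration of the series not given in the record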
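Step 1, compound plus 15 nM Sfp-PPTase, 15 min, room temperature. Step 2, add rhodamine-CoA (5 uM) and BHQ-2-YbbR (12.5 uM). Step 3, read 525/598 nm fluorescence at 0 and 30 min.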
TRPV1 potentiator – human TRPV1 potentiation; TRPV1-expressing cells, Fluo-8 calcium influx, capsaicin EC20 potentiation; host cell line not named in the record; control for the full effect not named in the record; potentiation, % at 8.33 µM; 0.02% of 320,000 active; AID 540277; active means potentiation above 80%; inconclusive means 30% to 80%; inactive means below 30%; note: 0% is about no effect
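Cells expressing TRPV1 were dye-loaded with Fluo-8 and read kinetically: 10 s baseline, 3 min after compound (agonist portion), then 2 min after EC20 capsaicin (allosteric enhancer portion). Calcium-bound dye fluorescence at 480/520 nm.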
Numbers without * were called inactive; [ ] = another dose, or the depositor's remark.

For O=c1nc2n(c3ncccc13)CCCCC2 the results were CtBP-E1A inh 0, Six1-Eya2 blk 12, D2 PAM -3, D2 agonist -4.4, PINK1 modulator 1.6%, Sfp inh 3% and TRPV1 potentiator -24.
For COc1ccc(N2CCN(C(=O)C3(C)CC3(Cl)Cl)CC2)cc1 (stereo not given) the results were CtBP-E1A inh 0, Six1-Eya2 blk 2, D2 PAM -6, D2 agonist -2.3, PINK1 modulator 1.9%, Sfp inh -1% and TRPV1 potentiator -4.
CCc1ccccc1NC(=O)NCc1ccc2c(c1)OCO2 was read as CtBP-E1A inh -4, Six1-Eya2 blk -6, D2 PAM -10, D2 agonist -1.1, PINK1 modulator 2.3%, Sfp inh -5% and TRPV1 potentiator -12.
Screening O=C(COC(=O)CC1CCCC1)Nc1cccc(F)c1 returned CtBP-E1A inh 9, Six1-Eya2 blk 8, D2 PAM -4, D2 agonist -4.3, PINK1 modulator 0.7% and TRPV1 potentiator -29.
Screening CC1CCN(CCOCCOc2ccccc2Br)CC1 returned CtBP-E1A inh 3, Six1-Eya2 blk 7, D2 PAM -18, D2 agonist -4.2, PINK1 modulator 2.8%, Sfp inh -12% and TRPV1 potentiator 10.
For O=C(COc1cccc(-n2cnnn2)c1)NCCC1=CCCCC1 the results were CtBP-E1A inh 4, Six1-Eya2 blk -1, D2 PAM -25, D2 agonist -3.5, PINK1 modulator -0.7%, Sfp inh -2% and TRPV1 potentiator -27.
For O=C1OC(c2ccccc2)(c2ccccc2)c2ccsc21 the results were CtBP-E1A inh 3, Six1-Eya2 blk 0, D2 PAM -9, D2 agonist -5.7 and PINK1 modulator 3.1%.
O=S(=O)(NC1CCCC1)c1ccc(Br)s1 was read as CtBP-E1A inh 1, Six1-Eya2 blk 8, D2 PAM 13, D2 agonist 3.8, Sfp inh 18% and TRPV1 potentiator 3.
COc1ccc(/C=C/C(=O)c2ccc[nH]2)cc1OC was read as CtBP-E1A inh -19, Six1-Eya2 blk 0, D2 PAM -5, D2 agonist -0.4, PINK1 modulator -5.5%, Sfp inh 19% and TRPV1 potentiator 12.
CC(C)c1nc(SCC(=O)Nc2cccc3ccccc23)n[nH]1 was read as CtBP-E1A inh 3, Six1-Eya2 blk 3, D2 PAM -10, D2 agonist -2.7 and PINK1 modulator -1.2%.
Screening CC(=O)c1cccc(N2C(=O)Nc3ccccc3N2O)c1 returned CtBP-E1A inh 2, Six1-Eya2 blk 6, D2 PAM -2, D2 agonist -1.0, PINK1 modulator 3.3%, Sfp inh 19% and TRPV1 potentiator -17.
For CC1(C)CC(=O)C/C(=N/NC(=O)C2CCN(S(=O)(=O)c3cccs3)CC2)C1 the results were CtBP-E1A inh -17, Six1-Eya2 blk -6, D2 PAM 0, D2 agonist -3.6, PINK1 modulator -1.7%, Sfp inh 5% and TRPV1 potentiator 14.
For CCCc1cc(=O)[nH]c(SCC(=O)N2CCc3cc(OC)c(OC)cc3C2)n1 the results were CtBP-E1A inh -23, Six1-Eya2 blk -1, D2 PAM -5, D2 agonist -3.6, PINK1 modulator -1.2% and TRPV1 potentiator 4.
`O=C(COC(=O)/C=C/c1cccc(C(F)(F)F)c1)NCc1cccs1` gave CtBP-E1A inh -1, Six1-Eya2 blk 13, D2 PAM 9, D2 agonist -0.4, PINK1 modulator 2.7% and TRPV1 potentiator -18.
CCOC(=O)C1CCN(C(=O)Nc2ccc(OCc3ccccc3)cc2)CC1 was read as CtBP-E1A inh -4, Six1-Eya2 blk -2, D2 PAM -8, D2 agonist 1.2, PINK1 modulator 2.6%, Sfp inh 4% and TRPV1 potentiator -23.
O=C(CSc1nc(C2CC2)nc2ccccc12)N1CCc2ccccc21 was read as CtBP-E1A inh -17, Six1-Eya2 blk 2, D2 PAM -7, D2 agonist -2.4 and PINK1 modulator 8.4%.
Screening COc1ccccc1N(CC(=O)NCc1ccco1)S(=O)(=O)c1ccc(C)cc1 returned CtBP-E1A inh -1, Six1-Eya2 blk 0, D2 PAM -7, D2 agonist -3.3, PINK1 modulator 1.1%, Sfp inh 56µM* and TRPV1 potentiator -3.
Cc1cc(Oc2ccccc2)nc(-c2ccccc2O)n1 was read as CtBP-E1A inh 21, Six1-Eya2 blk 18, D2 PAM -24, D2 agonist -4.0, PINK1 modulator 4.3%, Sfp inh -15% and TRPV1 potentiator -1.
`Cc1ccccc1SCC(=O)NCC(c1ccc(F)cc1)N1CCOCC1` (stereo not given) gave CtBP-E1A inh -1, Six1-Eya2 blk -2, D2 PAM -2, D2 agonist -1.0 and PINK1 modulator 3.5%.
For CCN(CC)C(=O)N1c2ccccc2CC(N(CC)CC)c2ccccc21 (stereo not given) the results were CtBP-E1A inh 4, Six1-Eya2 blk -2, D2 PAM -23, D2 agonist -2.7, PINK1 modulator 1.1%, Sfp inh 25% and TRPV1 potentiator -27.
CCCCOP(=O)(c1ccc(N(C)C)cc1)C(O)c1ccc(OC)cc1 (stereo not given) was read as CtBP-E1A inh 5, Six1-Eya2 blk 3, D2 PAM -7, D2 agonist -3.0, PINK1 modulator 0.4%, Sfp inh 3% and TRPV1 potentiator 12.
NS(=O)(=O)c1cccc(NC(=O)CSc2nc3ccccc3c(=O)n2CCCN2CCOCC2)c1 was read as CtBP-E1A inh -7, Six1-Eya2 blk 0, D2 PAM -7, D2 agonist -5.3, PINK1 modulator -2.5%, Sfp inh -10% and TRPV1 potentiator 6.
`NNC(=O)CSCc1ccc(Cl)cc1Cl` gave CtBP-E1A inh -15, Six1-Eya2 blk 6, D2 PAM -11, D2 agonist -4.4, PINK1 modulator 1.3%, Sfp inh 3% and TRPV1 potentiator 2.
`O=S(=O)(c1ccc(Br)s1)N1CCN(c2ccccn2)CC1` gave CtBP-E1A inh 2, Six1-Eya2 blk 2, D2 PAM -3, D2 agonist 1.7, PINK1 modulator 3.2%[38.3 µM], Sfp inh 7% and TRPV1 potentiator 20.
Cc1ccc(S(=O)(=O)N(C)C)cc1NC(=O)c1cc(S(=O)(=O)N2CCCCC2)ccc1N1CCOCC1 was read as CtBP-E1A inh -1, Six1-Eya2 blk -2, D2 PAM -12, D2 agonist -2.3, PINK1 modulator -0.8% and TRPV1 potentiator 3.
Screening O=C1c2ccccc2S(=O)(=O)c2cc(C(=O)N3CCC(C(=O)N4CCCCC4)CC3)ccc21 returned CtBP-E1A inh 6, Six1-Eya2 blk 5, D2 PAM -6, D2 agonist -1.3 and PINK1 modulator -1.8%.
`CC(C)(C)N(Cc1ccccc1)C(=O)COC(=O)c1ccc(N2CCCC2=O)cc1` gave CtBP-E1A inh -2, Six1-Eya2 blk 4, D2 PAM -9, D2 agonist -4.8 and PINK1 modulator -3.6%.
For COc1ccc(N2C(=O)N3[C@@H]4c5ccccc5OC[C@@H]4[C@@H](c4ccccc4)[C@@]3(C)C2=O)cc1 the results were CtBP-E1A inh -10, Six1-Eya2 blk 1, D2 PAM -8, D2 agonist -1.3 and PINK1 modulator 1.2%.
`COC(=O)c1cc(S(=O)(=O)N2CCN(C3CCCCC3)CC2)c[nH]1` gave CtBP-E1A inh -8, Six1-Eya2 blk -19, D2 PAM -9, D2 agonist -5.0, PINK1 modulator 1.1%, Sfp inh 15% and TRPV1 potentiator 11.
`O=S(=O)(NCc1ccc2c(c1)OCO2)c1ccc(Cl)s1` gave CtBP-E1A inh 0, Six1-Eya2 blk 13, D2 PAM 0, D2 agonist -0.6, PINK1 modulator -0.8%, Sfp inh 2% and TRPV1 potentiator -7.
Screening CC(=O)Nc1ccc(NC(=O)CNC(=O)c2cccc(C)c2)cc1 returned CtBP-E1A inh 6, Six1-Eya2 blk 2, D2 PAM -5, D2 agonist 4.2, PINK1 modulator 2.8%, Sfp inh 9% and TRPV1 potentiator 1.
Screening CC1CCc2c(C(=O)NCCN3CCOCC3)csc2C1 (stereo not given) returned CtBP-E1A inh -14, Six1-Eya2 blk -10, D2 PAM -23, D2 agonist 0.1, PINK1 modulator -6.8%[38.3 µM], Sfp inh -12% and TRPV1 potentiator inconclusive.
CCC(C)c1ccc(NC(=S)NCc2cccnc2)cc1 (stereo not given) was read as CtBP-E1A inh -6, Six1-Eya2 blk 1, D2 PAM -10, D2 agonist -2.3, PINK1 modulator -0.9%, Sfp inh 1% and TRPV1 potentiator -5.
For CCN1CCc2nc3ccccc3c(C(=O)Nc3ccc(NC(C)=O)cc3)c2C1 the results were CtBP-E1A inh 2, Six1-Eya2 blk 3, D2 PAM -12, D2 agonist -2.3, PINK1 modulator -0.1%, Sfp inh 16% and TRPV1 potentiator 0.
For CCOC(=O)C1=C(COC(=O)COc2ccccc2OCC)NC(=O)NC1C (stereo not given) the results were CtBP-E1A inh -1, Six1-Eya2 blk 13, D2 PAM -2, D2 agonist -2.8, PINK1 modulator 0.8% and TRPV1 potentiator -13.
`Cc1cc(OCc2cc(C(=O)N3CCC(Oc4cccnc4)CC3)no2)cc(C)c1Cl` gave CtBP-E1A inh 0, Six1-Eya2 blk -8, D2 PAM -10, D2 agonist 3.9, PINK1 modulator 0.2%, Sfp inh -15% and TRPV1 potentiator 5.
`CCN(Cc1nc(-c2cccc(Cl)c2)no1)CC1CCCO1` (stereo not given) gave CtBP-E1A inh 2, Six1-Eya2 blk 10, D2 PAM -4, D2 agonist 0.6, PINK1 modulator 4.7%, Sfp inh 12% and TRPV1 potentiator 8.
For O=C(CSCCO)Nc1nccs1 the results were CtBP-E1A inh 9, Six1-Eya2 blk 0, D2 PAM 11, D2 agonist 2.2, PINK1 modulator 0.5%, Sfp inh 17% and TRPV1 potentiator -2.

Pulled by compound from the list above, 3 records:
Screening CC1CCc2c(C(=O)NCCN3CCOCC3)csc2C1 (stereo not given) returned CtBP-E1A inh -14, Six1-Eya2 blk -10, D2 PAM -23, D2 agonist 0.1, PINK1 modulator -6.8%[38.3 µM], Sfp inh -12% and TRPV1 potentiator inconclusive.
For COc1ccc(N2C(=O)N3[C@@H]4c5ccccc5OC[C@@H]4[C@@H](c4ccccc4)[C@@]3(C)C2=O)cc1 the results were CtBP-E1A inh -10, Six1-Eya2 blk 1, D2 PAM -8, D2 agonist -1.3 and PINK1 modulator 1.2%.
`Cc1cc(OCc2cc(C(=O)N3CCC(Oc4cccnc4)CC3)no2)cc(C)c1Cl` gave CtBP-E1A inh 0, Six1-Eya2 blk -8, D2 PAM -10, D2 agonist 3.9, PINK1 modulator 0.2%, Sfp inh -15% and TRPV1 potentiator 5.

Screening data as filed in PubChem BioAssay.

Hits appear at their usual frequency; about 3.7% have a hit in one of these screens.
